miR-21 reporter: raises the signal of a miR-21 reporter. HeLa miR-21 FLuc reporter, luciferase, 48 h. AID 2288. Potency, µM (top dose mostly 38.3 µM), without a hit: at the highest dose reporter change, positive = more light. 340,000 tested, under 10 active; active = well fitted rising curve with a large enough effect; inconclusive = small, poorly fitted or top-dose-only effect; inactive = no such curve, though single readings can be large or run the other way;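 also: % of control where 0% means no effect; miR-21 action dims this reporter so a rising signal means less miR-21 action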
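Using DMEM plus 10% FBS, HeLa miR-21-FLuc cells are incubated with test compounds (final up to about 40uM) for 48 hours; firefly luciferase signal is then imaged following reagent-mediated lysis.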
* hit, by the source's call; ? = inconclusive.

| compound | miR-21 reporter |
| --- | --- |
| Cc1cccc(CS(=O)(=O)Cc2ccc(C(=O)NCc3ccc(Cl)cc3)o2)c1 | 23.9% |
| COC(=O)c1ccc(NC(=O)CC2C(=O)N(c3cccc(OC)c3)C(=O)N2Cc2cccc(OC)c2)cc1 (stereo not drawn) | 9.8% |
| COC(=O)c1ccc(Cl)cc1NC(=O)Nc1nnc(N(C)Cc2ccccc2)s1 | -8.6% |
| O=C(Nc1nc2n(n1)C(c1ccc(Cl)cc1)C=C(c1ccccc1)N2)c1ccco1 (stereo not drawn) | 0.9% |
| Cc1cccc(-n2nnnc2S(C)(=O)=O)c1 | -1.1% |
| COc1cc2nc(NCCc3cccc(C)c3)n3nc(-c4ccccc4)nc3c2cc1OC | 0.1% |
| Cc1nn2c(C)c(C(=O)NC(C)(C)C)cnc2c1-c1ccc(F)cc1 | -15.5% |
| O=C(CSc1nc(=O)n(Cc2ccco2)c2c1CCC2)NCc1ccccc1 | 0.1% |
| N#C/C(=C/c1ccccc1Cl)c1nc(-c2cc3ccccc3oc2=O)cs1 | -0.4% |
| COc1ccccc1N1CCN(S(=O)(=O)c2ccc(-c3cc(C(F)(F)F)on3)s2)CC1 | 8.5% |
| CC(C)(C)OC(=O)N1CCC(N2CCN(Cc3ccccc3)C(=O)C2=O)CC1 | -1.7% |
| COc1ccc(NC(=O)C2(S(=O)(=O)c3ccc(C)cc3)CC2)c(OC)c1 | -8.0% |
| CCc1ccc(-c2nn(CC(=O)NCc3ccccc3)c3c2cnc2ccc(C)cc23)cc1 | 0.1% |
| CCc1ccccc1NC(=O)c1cnn(-c2ccc(F)cc2)c1C1CCNCC1 | -1.7% |
| COc1ccc(OC)c(-c2cc(C(=O)NCCc3ccccc3)c3c(-c4ccc(C)cc4)[nH]nc3n2)c1 | 2.7% |
| COc1ccc(N(Cc2cccs2)C(=O)c2ccccc2C)cc1 | ? |
| CC(CNC(=O)c1ccc(Nc2nc3ccccc3n3nnnc23)cc1)c1ccccc1 (stereo not drawn) | -5.8% |
| CC(=O)Nc1cc(-c2nc3cc(Cl)ccc3o2)ccc1C | -46.6% |
| O=C(CSc1nccn1Cc1ccco1)Nc1cc(C(F)(F)F)ccc1Cl | -14.0% |
| COc1cccc2c1Oc1ncccc1N(C(=O)CCC(=O)NC(C)C)C2 | -2.8% |
| O=C(CS(=O)(=O)c1cccc2nsnc12)NCc1ccc(Cl)cc1 | -0.2% |
| CC1CCc2nc3ncn(Cc4ccccc4F)c(=O)c3cc2C1 (stereo not drawn) | -37.4% |
| COc1ccc(-c2noc(CSCC(=O)Nc3cccc(C(F)(F)F)c3)n2)cc1OC | -16.0% |
| O=C(O)Cc1sc(Nc2ccccc2Cl)nc1-c1ccccc1 | -40.2% |
| CCOc1ccc(S(=O)(=O)NCC(c2ccc(N(C)C)cc2)N2CCc3ccccc32)cc1 (stereo not drawn) | -2.4% |
| O=C(CCn1nc(-c2ccccc2)c2ccccc2c1=O)Nc1ccccc1 | -2.5% |
| O=C(Cn1nc2c(cc1=O)CCCC2)NCc1ccc(Cl)cc1 | 22.3% |
| CCc1nn(CC(=O)NCCCN(CC(C)C)CC(C)C)c(=O)c2cc3sc(C)cc3n12 | -5.5% |
| COc1ccccc1N1CCN(C(=O)C2CCN(S(=O)(=O)c3cccs3)CC2)CC1 | -20.4% |
| CCOC(=O)C(CC)Sc1ncnc2c1c(-c1ccccc1)cn2-c1ccc(OC)cc1 (stereo not drawn) | 14.6% |
| COc1cc(Cl)c(C)cc1NC(=O)CSc1nc2c(c(=O)[nH]1)CCC2 | 23.3% |
| O=C(Cn1c(=O)n(-c2ccccc2Cl)c(=O)c2sc3ccccc3c21)NC1CCCCC1 | -4.6% |
| Oc1c(C(Nc2ccccn2)c2ccccc2F)ccc2cccnc12 (stereo not drawn) | 8.2% |
| Cc1ccc(NS(=O)(=O)c2ccc3oc(=O)c4ncn(C)c4c3c2)cc1C | -0.6% |
| COc1ccc(NC(=O)Cn2c(=O)n(Cc3nc(-c4ccccc4)no3)c(=O)c3cc4c(cc32)OCO4)c(OC)c1 | 0.9% |
| COC(=O)c1ccc2c(c1)N(Cc1cc(C)ccc1C)C(=O)c1ccccc1S2(=O)=O | -2.4% |
| COc1ccccc1N1CCN(c2csc3ccccc3c2=O)CC1 | -20.5% |
| CCc1c(C)c2ccc(O)c(CN3CCN(c4ccc(F)cc4)CC3)c2oc1=O | -5.2% |
| COCCNC(=O)CCCN1C(=O)CCn2nc(-c3cccn3C)cc21 | 0.4% |
| Cc1ccc(-n2ncc(C(=O)NCc3ccc4c(c3)OCO4)c2C2CCN(C(=O)OC(C)(C)C)CC2)c(C)c1 | 24.6% |
| COc1cccc(-c2nnc(-c3ccccc3NC(=O)c3cccc(C(F)(F)F)c3)o2)c1 | -12.5% |
| CCOC(=O)c1c(C)[nH]c(C)c1S(=O)(=O)N1CCCC(C(=O)Nc2ccccc2OCC)C1 (stereo not drawn) | -7.6% |
| CCCCN(C)CCNC(=O)C1CCN(c2nc3ccc(CC)cc3s2)CC1 | 49.8% |
| Cc1ccc(CN2C(=O)C(O)(c3c[nH]c4ccccc34)c3cc(Cl)ccc32)cc1 (stereo not drawn) | ? |
| CCc1nc2nc(C)cc(Nc3cc(C)ccc3C)n2n1 | 6.6% |
| CCOC(=O)c1ccccc1NC(=O)CSc1cn(CC(=O)N2CCOCC2)c2ccccc12 | 1.0% |
| COc1ccccc1NC(=O)C(=O)NCCc1csc(-c2cccc(F)c2)n1 | 0.5% |
| C=CCn1c2ccccc2c(=O)c2cc(C#Cc3ccsc3)ccc21 | -16.6% |
| CCC(Oc1ccc(F)cc1)C(=O)Nc1nc2c(s1)CCCC2 (stereo not drawn) | 4.9% |
| O=C(Nc1ccc(Br)cc1)c1cc(S(=O)(=O)NC2CCCC2)ccc1F | 14.5% |
| CCOc1ccc(S(=O)(=O)N2CCN(c3ccc(C)cc3C)CC2)c2ccccc12 | -2.2% |
| COc1cc(OC)cc(-c2nc3nc(C)c(CCC(=O)Nc4ccc(Cl)cc4)c(C)n3n2)c1 | -2.2% |
| COc1cccc(NC(=O)C2CCN(c3ccc(Sc4ccc(C)cc4)nn3)CC2)c1 | 7.9% |
| CC(C)c1ccc(NC(=O)c2ccc(F)c(S(=O)(=O)N3CCc4ccccc4C3)c2)cc1 | 9.4% |
| COc1ccc(CC(=O)Nc2cc(-c3cn4cccnc4n3)ccc2OC)cc1 | -8.1% |
| Cc1ccc(-n2nc(C(=O)N(C)Cc3ccccc3)c3c4ccccc4n(C)c3c2=O)cc1 | 2.8% |
| Cc1ccc(CCNC(=O)NCc2noc3ccccc23)cc1 | -9.5% |
| NS(=O)(=O)c1ccc2nc(NC(=O)COc3ccc(Cl)cc3Cl)sc2c1 | -7.5% |
| CCCN1C(=O)C(NC(=O)c2ccccc2OC)(C(F)(F)F)C(C(=O)OC)=C1C (stereo not drawn) | -12.9% |
| c1coc(-c2nc3ccccn3c2Nc2ccc3c(c2)OCCO3)c1 | -52.8% |

(continued)
| compound | miR-21 reporter |
| --- | --- |
| O=C(Nc1sc2c(c1C(=O)N1CCCCC1)CCCC2)c1ccccc1Cl | 4.2% |
| COc1ccccc1CNC(=O)CCc1c(C)nn(-c2ccc(N3CCCCC3)nn2)c1C | -13.2% |
| COc1cccc(CNC(=O)C2Cc3cc(S(=O)(=O)N4CCCCCC4)ccc3N2C(C)=O)c1 (stereo not drawn) | -3.3% |
| Cc1cccc(Cn2c(SCc3ccc(C(=O)NC4CCCCC4)cc3)nc3cccnc32)c1 | 29.5% |
| Cc1oc(-c2ccccc2F)nc1CN1CCC(C(=O)NCCc2ccccc2)CC1 | -2.5% |
| COc1ccc2[nH]cc(CCN=C(NC(=O)c3ccccc3C)Nc3nc(C)cc(C)n3)c2c1 | -7.0% |
| Cc1cccc(N(CC(=O)NCCSCc2ccc(Cl)cc2)S(C)(=O)=O)c1C | 25.5% |
| Fc1ccccc1Oc1ncnc2c1oc1ccccc12 | -35.6% |
| CC(C)c1ccc(/C=C(\NC(=O)c2ccccc2)C(=O)NCCN2CCOCC2)cc1 | 0.0% |
| CCOc1ccc(S(=O)(=O)N(CC(=O)Nc2ccc3c(c2)OCO3)c2ccc(C)cc2)cc1 | -16.6% |
| Cc1ccccc1-n1nc(CO)c(C(=O)NCc2cccs2)n1 | 20.6% |
| CCOc1ccc2ncc3c(-c4cccc(OC)c4)nn(-c4ccccc4)c3c2c1 | 0.2% |
| COc1ccccc1N1CCN(C(=O)c2c3c(nc4ccccc24)C(=O)N(C2CCCCC2)C3)CC1 | -2.2% |
| CC1CCN(S(=O)(=O)c2cc(C(=O)NCc3ccccc3)n(C)c2)CC1 | -8.1% |
| Cc1ccc(OCCn2c(CCNC(=O)C3CCCCC3)nc3ccccc32)cc1 | -2.1% |

Of the compounds above, five have a CF3 group:
| compound | miR-21 reporter |
| --- | --- |
| COc1ccccc1N1CCN(S(=O)(=O)c2ccc(-c3cc(C(F)(F)F)on3)s2)CC1 | 8.5% |
| O=C(CSc1nccn1Cc1ccco1)Nc1cc(C(F)(F)F)ccc1Cl | -14.0% |
| COc1ccc(-c2noc(CSCC(=O)Nc3cccc(C(F)(F)F)c3)n2)cc1OC | -16.0% |
| COc1cccc(-c2nnc(-c3ccccc3NC(=O)c3cccc(C(F)(F)F)c3)o2)c1 | -12.5% |
| CCCN1C(=O)C(NC(=O)c2ccccc2OC)(C(F)(F)F)C(C(=O)OC)=C1C (stereo not drawn) | -12.9% |

More results follow.
| compound | miR-21 reporter |
| --- | --- |
| CCOC(=O)C(C)Sc1nc(-c2ccccc2Cl)cc(-c2ccccc2)c1C#N (stereo not drawn) | 1.7% |
| O=C(CSc1ncc(S(=O)(=O)c2ccc(Br)cc2)c(=O)[nH]1)NCc1ccccc1Cl | 0.2% |
| O=S(=O)(Nc1ccc(Br)cc1F)c1ccc2nc(-c3ccccc3)[nH]c2c1 | 8.9% |
| O=C(c1cccs1)c1cn(CCOc2ccccc2F)c2ccccc12 | -4.6% |
| CC(C)(C)OC(=O)N1CCC(c2c(C(=O)NCCN3CCOCC3)cnn2-c2ccc(F)cc2)CC1 | 0.1% |
| CCOc1ccc(CCNC(=O)c2cn(CC)c3ccc(S(=O)(=O)N4CCc5ccccc5C4)cc3c2=O)cc1OCC | 6.5% |
| COc1ccc2c(c1)c1c(c(=O)n(-c3ccccc3C)c(=O)n1Cc1c(F)cccc1Cl)n2C | 0.1% |
| COC(=O)CC1Oc2ccc(F)cc2-n2cc(-c3ccc(Cl)cc3)nc21 (stereo not drawn) | -8.5% |
| CCN(CC)S(=O)(=O)c1ccc2c(c1)nc(CN(C)C(=O)Nc1ccc(C)c(F)c1)n2C | 3.4% |
| CCSc1nc2ccccc2c(OCc2cc(C(=O)OC)ccc2OC)c1C(=O)OC | 20.5% |
| CCOC(=O)c1cc(S(=O)(=O)N2CCN(c3cccc(C)c3)C(C)C2)[nH]n1 (stereo not drawn) | 26.0% |
| CCN(CC)S(=O)(=O)c1ccc(C(=O)N=c2sc3cccc(OC)c3n2C)cc1 | 4.4% |
| O=C(CSC1=Nc2ccccc2C2=NC(Cc3ccccc3)C(=O)N12)Nc1ccccc1F (stereo not drawn) | -4.0% |
| CCOc1ccc(NC(=O)CSc2nc3c(oc4ccccc43)c(=O)n2-c2cc(C)cc(C)c2)cc1 | 3.2% |
| COc1ccc(CNC(=O)c2ccc(NC(=O)N3CCCCc4ccccc43)cc2)cc1 | 4.9% |
| CCOc1ccc(C(=O)NCC(c2ccco2)S(=O)(=O)c2cccs2)cc1 (stereo not drawn) | 1.5% |
| Cc1ccc(S(=O)(=O)NCCc2nnc3ccc(SCc4ccccc4C)nn23)cc1 | -1.7% |
| O=C(CSc1nnc2scc(-c3ccc(Cl)cc3)n12)Nc1ccccc1F | -8.8% |
| Cc1cccc(-n2ncc(C(=O)NCc3ccc4c(c3)OCO4)c2C2CCN(C(=O)OC(C)(C)C)CC2)c1 | 25.3% |
| CC(C)(C)C1CCc2oc3ccc(NS(=O)(=O)c4ccc(C(=O)O)cc4)cc3c2C1 (stereo not drawn) | -5.4% |
| COc1ccc(-n2c(=O)c3c4c(sc3n(Cc3ccc(F)cc3)c2=O)CCCC4)c(OC)c1 | 0.2% |
| O=C(NCc1cccs1)c1ccc(CSc2nc3cccnc3n2Cc2ccc(F)cc2)cc1 | 11.0% |
| CCOc1ccc(-c2cc(-c3nc(-c4ccc(OC)c(OC)c4)no3)[nH]n2)cc1 | 0.4% |
| Cc1ccc(C)c(NC(=O)CC2NCCNC2=O)c1 (stereo not drawn) | -6.7% |
| Cc1ccc(NC(=O)CCCn2nc(C)c3sc4ccccc4c3c2=O)c(Cl)c1 | 2.7% |
| CCOC(=O)c1ccccc1NC(=O)CN(c1ccccc1OC)S(=O)(=O)c1ccc(C)cc1 | -12.0% |
| O=C(CSc1nc2ccccc2nc1Cc1ccc(Cl)cc1)N1CCN(c2ccccc2F)CC1 | -0.1% |
| Cc1cc(Cl)ccc1NC(=O)C1CCCN(c2nnc(C)c3c(C)n(-c4ccccc4)nc23)C1 (stereo not drawn) | -2.4% |
| CCOC(=O)c1c(C)[nH]c(C)c1S(=O)(=O)N(C)CC(=O)Nc1cc(Cl)ccc1C | -1.3% |
| CCCCN(C)CCNC(=O)c1nn(-c2ccc(OC)c(Cl)c2)c(=O)c2c1c1ccccc1n2C | 3.3% |
| COC(=O)c1cc(NC(=O)c2oc(=O)c3ccccc3c2-c2ccccc2)cc(C(=O)OC)c1 | -5.3% |
| O=C1CC(c2ccccc2C(F)(F)F)c2c(c3ccccc3[nH]c2=O)O1 (stereo not drawn) | -3.9% |
| CC(=O)c1ccc(NC(=O)CSc2nnc3c(n2)[nH]c2ccccc23)cc1 | 8.4% |
| CCOC(=O)c1c(NC(=O)c2cc3nc(-c4ccc(Br)cc4)cc(C(F)(F)F)n3n2)sc(C(C)=O)c1C | 1.5% |
| CCCCN(c1ccccc1)S(=O)(=O)c1ccc2c(c1)CC(C)N2C(=O)C1CC1 (stereo not drawn) | ? |
| CCCOc1ccc(-c2nonc2NC(=O)COc2ccc(C)cc2)cc1OCCC | 0.5% |
| CCS(=O)(=O)N1CCc2cc(C(=O)Nc3cc(OC)c(Cl)cc3OC)ccc21 | 0.7% |

An excerpt. The share of hits here may be higher or lower than overall.
